T cruzi repl: T. cruzi replication inhibition | inhibition, % (no concentration beside the values) | T. cruzi beta-gal in NIH3T3, luminescence, 90 h | 300,000 compounds, 1.4% hits;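 active = mean inhibition across valid replicates above about 55%, limit read from the data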;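 note: signal also drops with host cell toxicity which is not excluded here; 0% = plate median of DMSO wells and 100% = zero luminescence signal; higher percent means less beta-gal luminescence so fewer parasites; stock transfer was 50 nL into about 50 µL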
LANA-H2B inh: blocks KSHV LANA binding to histone H2A/H2B. Q9QR71. cell-free LANA-H2A/H2B peptide, fluorescence polarization. inhibition, % (concentration not given with the values). 320,000 compounds, 0.6% hits; in the data active = inhibition mostly above about 10%, no sharp cut-off; inactive = mostly below about 6.7%;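 note: stock transfer was 7.5 nL into about 10 µL; 0% = median of vehicle wells and 100% = median of positive control wells; one replicate is shown; the record names a cut of 25% in any replicate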
rRNA inh HTS: inhibits bacterial ribosomal RNA function over humanized ribosomes; E. coli WT GFP vs humanized-ribosome RFP mutants, fluorescence, 24 h; stronger effect = lower value; DMSO median 0, no signal -100; GFP signal change (wild-type ribosome), % (no concentration beside the values); 350,000 compounds, 1.6% hits; AID 720706;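 active = significant combined selectivity score with lowered wild-type GFP, culture density cut under 30%, mutant RFP and density less affected; inactive = any of these conditions unmet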; note: one replicate is shown; some compounds called inactive have numbers as strong as hits
Calb FLC: affects C. albicans growth with fluconazole. C. albicans CaCi-2 (fluconazole-resistant clinical isolate) + fluconazole, Alamar Blue growth, 48 h. growth inhibition, % (concentration not given with the values). 300,000 compounds, 0.57% hits;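 active = most replicates above 75%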;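 note: all wells also contain fluconazole at 8 µg/ml as a sub-toxic cotreatment; 0% = median of DMSO wells and 100% = median of geldanamycin control wells; wells of about 8 µL received 7.5 nL stock; the first replicate is given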
A1 inh: inhibitors of the anti-apoptotic protein A1, read as caspase activation; 330,000 compounds, 0.066% hits; caspase activation, % (test concentration not listed); AID 2462; MEF A1-2A-BIM cells, Caspase-Glo 3/7 luminescence, 3 h; percent of clofoctol response, vehicle zero;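 active = over half of replicate activation scores above 10%, or exactly half above 10 with the replicate mean above 10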;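 note: wells of about 30 µL received 50 nL stock; many hits fall short of the cut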
ALR H2O2 inh: blocks human ALR sulfhydryl oxidase activity; purified ALR, DTT oxidation, H2O2 HRP-luminol luminescence; P55789; inhibition, % (concentration not given with the values); AID 485317; 290,000 compounds, 3.8% hits;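 active = mean and each replicate at 75% or more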;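 note: stock transfer was 7.5 nL into about 7.5 µL; 0% = neutral wells and 100% = wells with inactivated enzyme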
Target sequence (P55789 whole entry, looked up): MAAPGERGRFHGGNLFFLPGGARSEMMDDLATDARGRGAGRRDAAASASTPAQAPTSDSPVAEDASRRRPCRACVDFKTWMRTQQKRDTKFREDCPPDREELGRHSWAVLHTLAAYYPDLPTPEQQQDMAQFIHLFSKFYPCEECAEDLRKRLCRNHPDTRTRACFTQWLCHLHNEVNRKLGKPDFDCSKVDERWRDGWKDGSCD
Beta cell apopt: blocks beta cell apoptosis; INS-1E cytokine-induced death, ATP luminescence, 48 h; percent of positive-control rescue, neutral wells zero; 300,000 compounds, 0.8% hits; protection from apoptosis, % (no concentration beside the values); AID 435005;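 active = all replicates at 75% or more, or half of them and the mean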;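 note: 0% = cytokine-treated negative control wells and 100% = positive control rescue; higher means more ATP so stronger rescue from cytokine killing; wells of about 40 µL received 100 nL stock; the first replicate is given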
B2AR ag: agonists of human beta-2 adrenergic receptor inducing internalization; P07550; Am2.2-beta2AR cells, FAP receptor internalization, flow cytometry; reference of the scale not given here; response, % (test concentration not listed); 340,000 compounds, 0.43% hits; AID 504454;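 active = response above a set limit, near 3 SD of response in nonfluorescent compounds, cut at about 42% in these data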;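 note: stock transfer was 100 nL into about 11 µL; a reference agonist was the positive control; negative values mostly stem from fluorescent compounds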
Target sequence (P07550 whole entry, looked up): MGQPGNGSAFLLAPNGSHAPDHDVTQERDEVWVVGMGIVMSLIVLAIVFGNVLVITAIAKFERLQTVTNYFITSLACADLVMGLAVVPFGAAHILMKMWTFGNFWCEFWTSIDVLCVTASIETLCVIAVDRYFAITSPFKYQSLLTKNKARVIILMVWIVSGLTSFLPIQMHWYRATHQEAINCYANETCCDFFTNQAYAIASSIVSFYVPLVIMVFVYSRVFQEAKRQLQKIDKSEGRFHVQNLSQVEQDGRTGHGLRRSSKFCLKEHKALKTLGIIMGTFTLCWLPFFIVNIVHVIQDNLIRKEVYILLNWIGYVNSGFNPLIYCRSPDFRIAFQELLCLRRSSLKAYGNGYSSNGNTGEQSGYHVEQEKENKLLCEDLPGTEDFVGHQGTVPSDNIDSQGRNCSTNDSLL
rRNA inh HTS OD600: recorded beside rRNA inh HTS, whose call it bears; OD600 change, %; measured here: OD600 growth;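 optical density of the mix in the first replicate; 0 = DMSO median and -100 = no signal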
rRNA inh HTS RFP: recorded beside rRNA inh HTS, whose call it bears; RFP signal change, %; measured here: RFP humanized mutant strains;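 first replicate; 0 = DMSO median and -100 = no signal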
Starred values were filed as active, the others as inactive; . = not tested or not shown.

SMILES	T cruzi repl	LANA-H2B inh	rRNA inh HTS	rRNA inh HTS OD600	rRNA inh HTS RFP	Calb FLC	A1 inh	ALR H2O2 inh	Beta cell apopt	B2AR ag
Cc1ccc(CNCC(=O)Nc2ccc(N3CCOCC3)cc2)cc1	-20	-2.0	0	2	-1.6	-4	-0.9	99*	7	11
COc1ccc([C@H]2CC(=O)C=C(c3ccc(OC(F)(F)F)cc3)C2)cc1OC	.	-2.5	-12	-30	-3.7	.	-0.1	3	7	-5
Cc1ccc(S(=O)(=O)CCC(=O)OCC(=O)NCC(=O)Nc2c(C)cc(C)cc2C)cc1	7	-0.5	11	11	-0.4	2	-0.6	1	-1	-3
O=C(c1n[nH]c(=O)c2ccccc12)N1CCN(C2c3ccccc3-c3ccccc32)CC1	-7	11	.	.	.	-13	0.3	-2	1	10
Cc1ccc(NC(=O)CCc2nc3ccccc3s2)c(O)c1	-14	1.3	-26	-28	3.4	22	0.8	-5	3	5
COc1ccc(C(=O)NCCSc2ccccc2)cc1	1	-8.6	.	.	.	-2	-3.8	-4	-2	7
Cc1ccc2c(c1)N(CC(=O)NCCC1=CCCCC1)C(=O)c1cccnc1O2	14	-1.4	-27	-56	-3.8	7	0.8	-9	-4	-5
COc1cccc(/C=N/Nc2nc(C)cc(=O)[nH]2)c1OC	1	0.9	4	8	2.8	2	0.4	9	-4	10
COc1ccc(C2C(=O)N(C3CCCCC3)CC(=O)N2C2CCCC2)cc1 (configuration not stated)	4	1.5	.	.	.	7	0.5	2	2	5
CCCCC(=O)N/N=C(\C)c1cccc(NC(=O)C2CC2)c1	-8	0.1	.	.	.	-3	-1.3	-1	1	-2
CC(C)(C)N/N=C/c1cc(Cl)cc([N+](=O)[O-])c1O	31	3.8	.	.	.	4	0.8	18	-2	2
CC1CN(C(=O)N2CCCCC2)CCN1C(=O)N1CCCCC1 (configuration not stated)	-10	-13	9	8	2.6	10	0.6	-1	2	6
O=C(COC(=O)c1ccc([N+](=O)[O-])o1)Nc1ccc(F)cc1	.	0.4	0	5	-2.1	.	-0.4	-40	5	0
N/C(=N\OC(=O)Cc1ccccc1[N+](=O)[O-])c1cccnc1	-21	-5.0	5	-4	-1.1	1	0.6	-7	-1	3
Cc1cccc(NNC(=O)C2CCC2)c1	4	-4.1	16	14	1.9	-33	-0.6	59	-4	1
Cc1nn(CC(=O)Nc2ccccn2)c(C)c1[N+](=O)[O-]	-16	3.4	.	.	.	10	-0.3	-1	-3	0
Cc1cc(N2CCN(C)CC2)nc2ccc(NC(=S)N3CCN(c4ccc(Cl)cc4)CC3)cc12	61*	-0.5	3	7	7.3	35	0.4	9	9	2
S=C(Nc1cccnc1)N1CCN(c2ccccc2Cl)CC1	7	-0.3	-3	-17	-1.0	-2	0.0	8	-1	-3
Cc1noc(C)c1COc1ccccc1C(=O)NCCOc1ccccc1F	.	-3.5	-7	-11	-2.5	.	1.5	-7	-4	0
Cc1ccc(CCNC(=O)C23CN(Cc4ccccc4)CC2C(c2cccc([N+](=O)[O-])c2)=NO3)cc1 (configuration not stated)	20	3.3	7	14	-11	12	1.0	-1	-1	-1
COc1ccc(C2/C(=C(/O)c3ccc4c(c3)CC(C)O4)C(=O)C(=O)N2Cc2ccncc2)cc1 (configuration not stated)	-8	0.7	1	8	-4.1	-5	-0.3	33	-2	-3
CCN(CC(=O)Nc1ccccc1C(F)(F)F)C(=O)C1CSC2(C)CCC(=O)N12 (configuration not stated)	3	0.7	9	8	-0.6	1	0.9	1	-2	-1
Cn1c(CN2CCOCC2)nnc1SCc1ccccc1	1	-3.3	13	17	0.0	-7	0.1	0	-1	-5
CC(C)OCCCNC(=O)NC(=O)c1ccc(Cl)cc1	-4	1.6	1	4	1.5	-8	-0.6	-1	-4	-9
CCOC(=O)Cn1nc(C)n(-c2ccc(Br)cc2)c1=O	-2	2.1	13	21	1.8	0	-0.7	4	-1	2

The closing 3 records of the section before are carried over, then new ones follow:
SMILES	T cruzi repl	LANA-H2B inh	rRNA inh HTS	rRNA inh HTS OD600	rRNA inh HTS RFP	Calb FLC	A1 inh	ALR H2O2 inh	Beta cell apopt	B2AR ag
Cn1c(CN2CCOCC2)nnc1SCc1ccccc1	1	-3.3	13	17	0.0	-7	0.1	0	-1	-5
CC(C)OCCCNC(=O)NC(=O)c1ccc(Cl)cc1	-4	1.6	1	4	1.5	-8	-0.6	-1	-4	-9
CCOC(=O)Cn1nc(C)n(-c2ccc(Br)cc2)c1=O	-2	2.1	13	21	1.8	0	-0.7	4	-1	2
Cc1ccc(C(=O)Nc2ccc(S(=O)(=O)N3CCc4ccccc4C3)cc2)o1	15	-0.2	.	.	.	-10	0.0	-8	5	-3
COc1ccc(NC(=O)CNC(=O)Cc2cccc3ccccc23)c(OC)c1	26	-1.7	1	3	-3.0	-1	1.2	-1	-2	9
COc1ccccc1N1CCN(C(=O)/C=C/c2ccccc2)CC1	10	-4.3	.	.	.	11	-0.7	1	-4	-2
CCN(CC)c1nc2n(c(=O)n1)CCN2CC	-5	-0.1	.	.	.	-9	0.3	-2	4	2
CCN(C(=O)CSc1nnnn1-c1ccc(OC)cc1)C1CCS(=O)(=O)C1 (configuration not stated)	.	-3.8	5	0	-1.3	.	-0.2	.	-6	-7
O=S(=O)(c1ccc2ccccc2c1)N1CCN(CCO)CC1	-10	-0.3	4	14	0.8	1	0.5	.	1	-3
COc1ccccc1-c1cc(C(=O)Nc2c(F)cc(F)cc2Br)no1	12	2.4	.	.	.	1	0.5	-1	0	2
COc1ccc(OCCCC(=O)Nc2nccs2)cc1	-17	-1.7	1	0	-1.6	21	0.6	-19	3	1
O=C(COc1ccc2c(-c3ccccc3)cc(=O)oc2c1)NCCCn1ccnc1	-21	-5.5	-8	-10	-4.5	-1	0.2	-1	-6	-19
CCCn1c(SCC(=O)N2c3ccccc3CCc3ccccc32)nc2c1c(=O)n(C)c(=O)n2C	39	-1.2	.	.	.	-9	0.6	-10	-4	-2
O=C(/C=C/Nc1ccc(F)c(Cl)c1)c1ccco1	-14	0.0	.	.	.	-3	-2.4	-2	-4	-1
C=CCOc1ccc(Br)cc1CNCCCN1CCOCC1	4	2.7	.	.	.	2	-0.1	-8	-3	2
O=C1c2ccc([N+](=O)[O-])cc2C(=O)N1Cc1cccnc1	-15	2.8	6	13	-2.7	-2	0.0	.	-3	-2
CC(=O)Nc1ccc(NC(=O)C(C)OC(=O)C2(c3ccc(F)cc3)CCCC2)cc1 (configuration not stated)	19	2.1	7	-1	3.1	6	0.1	-13	3	-10
COC(=O)c1ccc(NC(=O)C[n+]2ccccc2C)cc1	-11	-3.0	8	18	0.4	4	-0.2	-13	-8	4
CC(=O)NCCC(=O)Nc1nc(-c2cccs2)c(-c2cccs2)s1	4	-2.4	.	.	.	3	-0.5	9	-3	-7
COc1ccc2c(c1)C=CC1(O2)N(CCO)c2ccccc2C1(C)C (configuration not stated)	21	-5.7	.	.	.	8	2.0	-8	2	6
O=C(COC(=O)C1CC2CCCC(C1)C2=O)NNC(=O)c1ccccc1F (configuration not stated)	-15	34*	18	4	1.6	2	-0.2	-9	-9	-3
Cc1c(-c2nnc(SCC(=O)O)n2-c2ccccc2Br)nnn1-c1ccccc1	-4	-0.5	.	.	.	-8	1.4	-5	.	-9
c1ccc(Cn2c[n+](Cc3ccccc3)cn2)cc1	-21	-4.5	21	12	3.1	-22	0.7	.	-2	2
Cc1ccc(C)c2[nH]c(=O)c(CN(CC3CCCO3)C(=S)NCc3ccco3)cc12 (configuration not stated)	25	1.2	13	1	9.6	5	-0.3	-5	-8	2
CCOC(=O)c1c(C)[nH]c(C(=O)N2CCCC(C(=O)c3cccc(OC)c3)C2)c1C (configuration not stated)	6	-1.3	-4	-10	-2.8	5	2.0	7	2	-9
Cc1ccc(C(=O)NCCNC(=O)c2ccccc2)cc1	-7	-345	7	4	1.6	6	0.0	-4	0	0
O=C(CSc1nnc(CNC(=O)C23CC4CC(CC(C4)C2)C3)n1-c1ccccc1)Nc1ccccc1	-6	9.3	10	7	11	0	0.5	.	3	-8
COc1cc([N+](=O)[O-])cc2sc(NC(=O)C3CC3)nc12	0	-1.1	18	14	0.3	31	1.2	-25	2	-16

Nothing new here: an excerpt of the list.
SMILES	T cruzi repl	LANA-H2B inh	rRNA inh HTS	rRNA inh HTS OD600	rRNA inh HTS RFP	Calb FLC	A1 inh	ALR H2O2 inh	Beta cell apopt	B2AR ag
Cc1c(-c2nnc(SCC(=O)O)n2-c2ccccc2Br)nnn1-c1ccccc1	-4	-0.5	.	.	.	-8	1.4	-5	.	-9
c1ccc(Cn2c[n+](Cc3ccccc3)cn2)cc1	-21	-4.5	21	12	3.1	-22	0.7	.	-2	2
Cc1ccc(C)c2[nH]c(=O)c(CN(CC3CCCO3)C(=S)NCc3ccco3)cc12 (configuration not stated)	25	1.2	13	1	9.6	5	-0.3	-5	-8	2
CCOC(=O)c1c(C)[nH]c(C(=O)N2CCCC(C(=O)c3cccc(OC)c3)C2)c1C (configuration not stated)	6	-1.3	-4	-10	-2.8	5	2.0	7	2	-9
Cc1ccc(C(=O)NCCNC(=O)c2ccccc2)cc1	-7	-345	7	4	1.6	6	0.0	-4	0	0
O=C(CSc1nnc(CNC(=O)C23CC4CC(CC(C4)C2)C3)n1-c1ccccc1)Nc1ccccc1	-6	9.3	10	7	11	0	0.5	.	3	-8
COc1cc([N+](=O)[O-])cc2sc(NC(=O)C3CC3)nc12	0	-1.1	18	14	0.3	31	1.2	-25	2	-16

Not all compounds are listed, so the mix of outcomes need not match the whole.
